# BJeLR viability – MLPCN primary cell-based screen for lethality selective to Ras in HRASV12 cells; BJeLR (HRASV12) viability, CellTiter-Glo ATP luminescence, 48 h; reference of the scale not given here; inhibition, % (no concentration beside the values); hit rate 0.17% among 300,000; AID 1554, 2009;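 active = replicate mean above 50%; inconclusive = above 50% but judged a plate artefact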;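 also: 50 nL library stock added to about 25 µL; numbers are from one replicate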
# Mtb hypoxia rep – PubChem AID 1159583; hit rate 0.1% among 300,000; fluorescence inhibition, % (no concentration beside the values); M. tuberculosis hypoxia-regulated fluorescent reporter, fluorescence;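 active = 35 to 45% if threefold the growth effect, above 45% if 1.5-fold the growth effect; inactive = the rest, general growth blockers included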;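 also: wells of about 50 µL received 100 nL stock; 0% = vehicle wells and 100% = reference inhibitor wells; whole bacteria with a GFP reporter of the hypoxia response; strong numbers were not always called active; many hits fall short of the cut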
# ugtP null kill – growth inhibition of ugtP-null S. aureus, primary screen, RN4220 ugtP deletion, OD600. growth inhibition, % (test concentration not listed). 16 h; some inactives read as strong as hits. hit rate 0.54% among 330,000. AID 1259309, 2017;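 active = z-score under -3 and OD600 up to 0.15 on both plates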;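 also: plate controls were untreated wells for no effect and antibiotic for full effect; wells of about 80 µL received 100 nL stock; the first replicate is given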
# PrP UTR inh – inhibition of PrP 5' UTR reporter expression. inhibition, % (concentration not given with the values). AID 488862, 2010. hit rate 0.35% among 340,000. cell-based PrP 5' UTR mRNA reporter, plate reader;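 active = every replicate at 50% or more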;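 also: 0 = median of the neutral control wells; tested in H4 reporter cells; numbers are from one replicate; inactives centre near -14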
# Autofluor counter – counter-screen for toxin protease inhibitors: compound fluorescence; compound autofluorescence counterscreen, microsphere flow cytometry; stronger effect = higher value; fluorescence intensity (no concentration beside the values); hit rate 3.1% among 360,000;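 active = at least 3 SD above the mean of all compounds, about 16000 in these data; inconclusive = too few beads counted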;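 also: 100 nL of 1 mM stock went into each well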
# RN4220 kill – growth inhibition of S. aureus RN4220, primary screen, OD600. 16 h. inhibition, % (no concentration beside the values). hit rate 0.33% among 330,000. AID 1259311, 2017;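 active = z-score of -3 or lower and OD600 up to 0.18 on both plates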;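 also: plate controls were untreated cells for no effect and reference antibiotic for full effect; stock transfer was 100 nL into about 80 µL; one replicate is shown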
# Mtb hypoxia rep growth – second read-out of Mtb hypoxia rep, no call of its own (marks repeat the call); growth inhibition, %; measured here: M. tuberculosis growth (absorbance);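 0% = vehicle and 100% = reference antibiotic; read after six days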
# * = called active by the depositor; u = inconclusive; x = not tested or not shown.
SMILES,BJeLR viability,Mtb hypoxia rep,Mtb hypoxia rep growth,ugtP null kill,PrP UTR inh,Autofluor counter,RN4220 kill
CCC(=O)N1CCc2cc(S(=O)(=O)CCC(=O)Nc3ccc(C)c(F)c3)ccc21,1,x,x,6,-12,3135,-1.6
O=[N+]([O-])c1ccccc1OCCCNCc1ccccc1,-4,-18,-13,-2,-27,5114,1.1
Cc1cc(C)c(S(=O)(=O)N(C2=NCCS2)S(=O)(=O)c2c(C)cc(C)cc2C)c(C)c1,5,x,x,29,-36,4330,6.5
CC12CN3CCN(CC(C3)C1=NN=Cc1cccc([N+](=O)[O-])c1)C2,x,9,6,7,x,x,2.7
O=C(COC(=O)c1ccccc1)Nc1cccc(S(=O)(=O)NC2=NCCCCC2)c1,0,9,1,-1,-4,2417,0.8
CS(=O)(=O)N(CC(=O)N1CCc2ccccc2C1)Cc1ccccc1,-7,3,8,3,-26,10228,2.6
CCNC(=O)NC(=O)CSc1ccc(NC(C)=O)cc1,-4,x,x,-2,-53,2798,2.2
COc1cccc(NC(=O)Cn2c(=O)n(CCCC(=O)NCc3ccco3)c(=O)c3ccccc32)c1,6,x,x,5,-10,5908,-4.0
O=[N+]([O-])c1ccc(/C=N/Nc2nc3ccccc3o2)cc1,4,x,x,x,-34,3635,x
CCOc1ccc(Oc2ccc(Cl)cc2N)cc1,8,18,10,-2,-29,4144,4.2
Cc1ccccc1-c1nnc(CN2CCN(C(=O)c3ccco3)CC2)o1,-3,1,5,3,11,3096,0.9
COC(=O)C1=C(N)Oc2cc(C)n(Cc3ccccc3)c(=O)c2C1c1ccccc1 (stereo not drawn),0,15,2,1,-24,4504,4.2
Cc1ccc(OCCC(=O)N2CCN(c3ccc(O)cc3)CC2)cc1,-10,6,-6,-6,6,4399,-1.7
C=CCn1c(O)c(N=O)c2ccccc21,-5,5,8,4,-19,5775,9.8
Cc1ccc(S(=O)(=O)NC2CC(C)(C)N(O)C(C)(C)C2)cc1,x,1,8,3,-6,3689,1.3
C=CCNC(=S)NCC,-6,x,x,x,-35,3714,x
CCN(CC)CCN(Cc1cc2cc3c(cc2[nH]c1=O)OCCO3)C(=S)NCCCN(C)C,-6,1,-4,6,-19,3990,3.4
C=CCn1c(=O)c2ccc(C(=O)NCc3ccccc3)cc2n(Cc2cccc(Cl)c2)c1=O,-11,1,3,0,8,3948,0.3
CCOc1cc(C2C(C(=O)c3ccco3)=C(O)C(=O)N2Cc2ccccc2)ccc1O (stereo not drawn),-2,11,10,-2,-23,5903,-0.9
Cc1ccc(C2CC=C(C(=O)O)CN2S(=O)(=O)c2ccc(C)cc2)cc1 (stereo not drawn),x,6,10,2,x,x,6.4
CCc1cc2ccc(C)cc2nc1SCC(=O)N1CCN(C(=O)c2ccco2)CC1,4,x,x,-3,-3,2758,-2.2
CCCCN1Cc2cc(C(=O)c3cc(F)ccc3O)cnc2NC1=O,x,x,x,4,-22,4772,-2.9
CCNC(=S)NCCN1CCOCC1,2,11,4,9,-23,2164,7.1
CCCCN1C2CCCC1CC(NC(=O)c1ccc(OC)c(OC)c1)C2 (stereo not drawn),-3,15,1,0,3,3554,2.0
Cc1ccccc1NC(=O)c1cc(S(=O)(=O)Nc2cccc(C(=O)O)c2)ccc1Cl,3,-9,6,-1,-16,3771,0.7
O=C(CN1CCN(S(=O)(=O)c2ccccc2F)CC1)NC1CCCC1,-7,3,3,4,-25,4803,2.7
N#Cc1c2ccc(OCC(=O)NCc3ccco3)cc2n2ccccc12,-8,-2,3,7,-9,3609,-0.3
COc1ccc(-c2coc3cc(O)cc(O)c3c2=O)cc1,-2,-8,-2,-3,-84,4328,4.3
NC(Cc1ccc(OC(F)F)cc1)C(=O)O (stereo not drawn),0,3,14,7,-2,4820,0.8
CCOC(=O)c1cc2c(ccn2C)n1CC(=O)N1CCC(C)CC1,-5,-10,-10,-4,-21,4045,-3.5
CCCCc1ccc(NC(=O)C2CCCC2)cc1,-1,15,4,-1,-76,4567,-1.1
Cc1cccc(NC(=O)c2ccc(S(=O)(=O)NCc3cccnc3)cc2)c1,-4,12,2,0,-25,3897,0.9
Cn1ncc(Br)c1C(=O)NC1CCCCC1,-7,-6,-8,0,-30,3652,3.3
O=C(NCc1cccnc1)Nc1ccccc1Cl,-1,-1,-3,10,-39,4237,3.8
O=C(CCNC(=O)c1ccc([N+](=O)[O-])cc1)Nc1nc2ccccc2[nH]1,x,0,2,0,-21,5455,-2.1
Cc1ccc(CN(CC(=O)NCCc2ccccc2)C(=O)CCCC(=O)Nc2cc(C)on2)cc1,10,-1,4,8,-16,17240*,3.8

# Filtered by structure, those above containing a Cl atom.
SMILES,BJeLR viability,Mtb hypoxia rep,Mtb hypoxia rep growth,ugtP null kill,PrP UTR inh,Autofluor counter,RN4220 kill
CCOc1ccc(Oc2ccc(Cl)cc2N)cc1,8,18,10,-2,-29,4144,4.2
C=CCn1c(=O)c2ccc(C(=O)NCc3ccccc3)cc2n(Cc2cccc(Cl)c2)c1=O,-11,1,3,0,8,3948,0.3
Cc1ccccc1NC(=O)c1cc(S(=O)(=O)Nc2cccc(C(=O)O)c2)ccc1Cl,3,-9,6,-1,-16,3771,0.7
O=C(NCc1cccnc1)Nc1ccccc1Cl,-1,-1,-3,10,-39,4237,3.8

# (listing goes on)
SMILES,BJeLR viability,Mtb hypoxia rep,Mtb hypoxia rep growth,ugtP null kill,PrP UTR inh,Autofluor counter,RN4220 kill
OCCN1CCN(Cc2nc(-c3cccc(Cl)c3)no2)CC1,-3,13,0,6,-26,2110,2.3
CC(C)CC(NC(=O)c1ccc(Cl)cc1)C(=O)O (stereo not drawn),2,9,6,6,-5,u,0.6
Cc1ccc(S(=O)(=O)NCCc2nc3ccccc3[nH]2)cc1,0,-1,-4,-2,-17,4304,5.1
CC(C)(C)c1ccc(SCC(N)=O)cc1,3,x,x,-3,-23,4993,-0.5
COc1cccc(CNC(=O)CSc2ccc(-c3ccco3)nn2)c1,-2,2,21,5,1,3477,4.4
CCOC(=O)c1cnn(-c2ccccc2)c1NC(=O)CSc1nnc(-c2cccs2)n1CC,-9,25,-20,-4,-7,2823,-17
CCOC(=O)CSc1nnc(CNc2ccc(Cl)cc2)n1-c1ccccc1,-10,0,4,-4,-17,7289,2.9
CC1CCN(CCCNC(=O)Cn2ncc3c([nH]c4ccccc43)c2=O)CC1,6,14,2,8,0,4986,5.2
CN(C)c1nc2c(c(=O)[nH]c(=O)n2C)n1CCOc1ccccc1,-6,0,1,9,-11,3592,2.6
O=C(Cc1cccs1)Nc1nnc(CCc2ccccc2)s1,1,9,25,-1,-18,4641,7.8
Cc1ccc(N2C(=O)c3cccc(Oc4ccc(Cl)cc4)c3C2=O)c(C)c1,-2,-2,-6,-1,-8,2654,4.7
COc1cc2c(cc1OC)CN(C(=O)c1cc(S(=O)(=O)N3CCCCC3)ccc1Cl)CC2,-7,-1,11,14,-8,7087,1.6

# Fetched by compound from the entries so far (two):
SMILES,BJeLR viability,Mtb hypoxia rep,Mtb hypoxia rep growth,ugtP null kill,PrP UTR inh,Autofluor counter,RN4220 kill
CCOC(=O)c1cnn(-c2ccccc2)c1NC(=O)CSc1nnc(-c2cccs2)n1CC,-9,25,-20,-4,-7,2823,-17
CC(C)(C)c1ccc(SCC(N)=O)cc1,3,x,x,-3,-23,4993,-0.5

# Other compounds follow.
SMILES,BJeLR viability,Mtb hypoxia rep,Mtb hypoxia rep growth,ugtP null kill,PrP UTR inh,Autofluor counter,RN4220 kill
N#Cc1c(-c2cccc(Br)c2)cc(-c2cccnc2)nc1N,-3,8,2,-3,-6,10928,8.4
COc1cc(-c2nc3ccccn3c2N=Cc2ccc(F)cc2)ccc1O,x,4,4,-3,x,x,4.3
O=[N+]([O-])c1c(C(Cl)Cl)nn(-c2ccccc2)c1N1CCOCC1,-5,-4,13,13,-2,4692,8.8
CCOC(=O)C(=NNc1ccccc1)c1csc(Nc2ccccc2)n1,x,-1,-9,93*,x,x,92*
N#Cc1c(/N=C/c2ccco2)sc2c1CCC2,2,x,x,x,-28,2825,x
CC(C)CC(=O)NC(C)C(c1cccs1)N1CCOCC1 (stereo not drawn),-10,1,7,15,-1,3901,4.8
CCOC(=O)c1sc(NC(NC(=O)c2ccco2)(C(=O)OC)C(F)(F)F)nc1C (stereo not drawn),11,x,x,-4,-15,4234,-0.2
COc1ccccc1N1CCN(S(=O)(=O)c2ccc(Cl)s2)CC1,1,-6,2,1,-11,8372,4.5
Cn1ccnc1SCc1cc(=O)[nH]c2ccccc12,-5,16,5,-8,-18,11368,-1.4
CCOC(=O)CC1ON(C)C(=O)N1c1ccc([N+](=O)[O-])cc1 (stereo not drawn),-1,x,x,-3,-26,4117,-0.4
COc1ccccc1C=NNC(=O)c1c(-c2ccccc2)noc1C,x,-11,-3,16,x,x,2.9
OC1(c2cccnc2)CCN(Cc2nnnn2Cc2ccccc2)CC1,7,13,4,-68,-18,4334,13
O=C(Cn1nnc(-c2ccccc2)n1)N1CCN(c2ccc(F)cc2)CC1,-20,3,-1,6,-4,5074,6.1
COc1ccc(OC)c(NC(=O)NNC(=O)COc2ccc([N+](=O)[O-])cc2)c1,-11,12,2,9,-19,u,2.9
O=C(CSc1ncc(-c2ccc(F)cc2)[nH]1)Nc1cccc(O)c1,-6,2,2,-13,-7,12595,9.3
Cc1cc2oc(C(=O)N(Cc3ccccc3)C3CCS(=O)(=O)C3)c(C)c2cc1C (stereo not drawn),2,0,0,6,-17,x,5.9
CC(=O)Nc1ccc(N/C=C/C(=O)c2ccc(C)cc2)cc1,6,-3,6,9,-28,3431,7.9
COC(=O)[C@@]12CCCCN1C(c1ccc(-c3ccc(C(C)=O)cc3)cc1)C1C(=O)N(C)C(=O)C12 (stereo partly drawn),x,-2,5,-8,x,x,3.3
Cc1ccc(-c2nc(CS(=O)CC(=O)NC3CCCC3)c(C)o2)cc1 (stereo not drawn),13,4,17,-11,-12,5204,-12
COc1ccc(N2CCN(C(c3ccc4ncccc4c3)c3nnnn3C(C)(C)C)CC2)cc1 (stereo not drawn),3,-15,-5,3,-6,6836,1.6
CCOC(=O)C1=C2SCCN2C(=O)C(C#N)C1(C)C (stereo not drawn),-11,x,x,5,-19,4266,3.1
O=C(CSc1c2c(nc3ccc(Cl)cc13)CCCC2)NCCCN1CCOCC1,-3,14,4,9,-26,2561,3.4
C(=N\Nc1nc(N2CCCC2)nc(N2CCCC2)n1)/c1ccccc1OCc1ccccc1,4,x,x,x,1,4598,x
Cn1cccc1C(=O)OCc1csc(-c2ccccc2)n1,-1,1,3,3,-88,3955,2.9
CCc1c(C)nc2ccc(Br)cc2c1Cl,7,x,x,-19,-25,2693,-0.5
O=C(COC(=O)/C=C/c1ccc(S(=O)(=O)N2CCOCC2)cc1)NCc1ccc(F)cc1,2,-9,-4,0,-21,4228,4.8
COc1ccc(C2C=C3CN(C(=O)OC(C)(C)C)S(=O)(=O)C3CC2OC(=O)c2ccc(C(F)(F)F)cc2)cc1 (stereo not drawn),x,7,12,9,x,x,4.1
Cc1ccc(CN2CCN(C(=O)CC(C)C)CC2)cc1,-5,3,4,10,-11,x,2.7
COc1ccccc1C(=O)NC(CCSC)C(=O)NNC(=O)c1ccncc1 (stereo not drawn),2,-3,11,1,-16,u,1.1
CSc1nc(N)c(C(=O)Nc2ccc([N+](=O)[O-])cc2)s1,-9,8,11,-5,-19,4844,4.2
COC(=O)c1ccc2nccnc2c1,-2,0,-2,12,11,6135,4.7
CCCCOc1ccc(C(C)NC(=O)C2CCCN(S(=O)(=O)CC)C2)cc1 (stereo not drawn),-5,-1,13,7,-1,3167,2.6
CC(NC(=O)C12CC3CC(CC(C3)C1)C2)C(=O)NCCN(C)C (stereo not drawn),3,x,x,4,-2,2729,-1.2
Cc1ccc(NC(=S)Nc2ccc(F)cc2)cc1,-1,0,2,-2,-16,3289,-0.9
CCOc1ccccc1CNS(=O)(=O)c1cnc[nH]1,2,2,-5,2,-5,4331,0.3
CCOc1ccc(N=Cc2c(O)c3ccccc3oc2=O)cc1,11,4,8,9,-21,2187,1.9
COCC(=O)N1CCC(Oc2ccc(C(=O)NCCCC3CCCC3)cc2)CC1,-2,10,14,8,4,5458,0.3
Cc1ccc(NC2=C(CC(=O)O)C(c3ccccc3)N(c3ccc(C)cc3)C2=O)cc1 (stereo not drawn),-2,x,x,x,-24,2460,x
COc1ccc(OC)c(C2=Nn3c(nnc3-c3ccco3)SC2)c1,-6,3,-4,-5,1,15918,-2.3
COc1ccc(/C=C/C(=O)c2ccc(O)cc2)cc1,-2,x,x,-4,-46,4064,16

# High-throughput results from PubChem BioAssay.
